gsp antagonist = antagonizes gsp, the McCune-Albright syndrome mutation; gsp-mutant cells, cAMP HTRF, 30 min; control for the full effect not named in the record; Potency, µM (titrated, usually from 76.9 µM), inactives show at the top dose activity change, negative = inhibition, actives largely listed as inhibitors; 0.4% of 340,000 active; active = falling curve of any shape with a large fitted effect; inconclusive = falling curve, mostly with a smaller effect; inactive = flat or rising curve; cell line not stated here;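 further: intracellular cAMP measured with PDE inhibitor Ro 20-1724 present during compound exposure; potency means the concentration at half of the fitted maximal effect; on the % scale 0 is the no-effect control and ±100 the full control effect; nearly all actives have a fitted effect of over 65% in size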
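HTRF cAMP measurement after 30 min RT detection following 30 min, 37C compound treatment alongside […] (added as 300 uM solution) in G418-selected cells seeded at 2000/well and grown 16–24 h.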
Menin-MLL FL inh = displaces fluorescein MLL peptide from human menin. FP activity change, % at 61.4 µM. 290,000 tested, under 10 active. Fluorescence polarization, fluorescein-MLL peptide displacement from menin; inconclusive = falling polarisation curve, or a change in total fluorescence; inactive = total fluorescence flat and polarisation flat or rising; no compound was filed as active; the % refers to the polarisation; negative = inhibition;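 further: % of control where 0% means no effect; inhibitors lower the polarisation; unlabelled MLL peptide was the positive control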
gsp agonist = gsp mutant agonism. gsp mutant cells, cAMP HTRF, 30 min; control for the full effect not named in the record. 0.13% of 340,000 active. Potency, µM (titrated, usually from 76.9 µM), inactives show at the top dose activation (cAMP increase), actives largely listed as activators. AID 624287; active = well fitted activation curve with a large enough effect; inconclusive = small, poorly fitted or top-dose-only effect, or another doubt; inactive = no such curve, though single readings can be large or run the other way; cell line not stated here;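 further: phosphodiesterase inhibitor Ro 20-1724 added with compounds to block cAMP breakdown; potency means the concentration at half of the fitted maximal effect; nearly all actives have a fitted effect of over 60% in size; about a fifth of the inactives were tested at one dose only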
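Cells in DMEM/10% FBS with G418 were pretreated with compounds in DMSO plus […] (300 uM stock) for 30 min at 37C. cAMP was measured by HTRF (cAMP-d2 plus anti-cAMP antibody-K) after 30 min at room temperature.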
TRPML1 agonist = activates the human TRPML1 channel; activation, % (test concentration not listed); 0.12% of 410,000 active; AID 624414; TRPML1-expressing cells, Ca2+ dye fluorescence, FDSS; host cell line not named in the record; reference of the full effect not given here; Q9GZU1; in the data active = activation above about 50%; inconclusive = about 30% to 50%; inactive = below about 30%; further: 0% is about no effect; the text of the record puts the active cut at 80%
Target sequence (Q9GZU1 whole entry, looked up): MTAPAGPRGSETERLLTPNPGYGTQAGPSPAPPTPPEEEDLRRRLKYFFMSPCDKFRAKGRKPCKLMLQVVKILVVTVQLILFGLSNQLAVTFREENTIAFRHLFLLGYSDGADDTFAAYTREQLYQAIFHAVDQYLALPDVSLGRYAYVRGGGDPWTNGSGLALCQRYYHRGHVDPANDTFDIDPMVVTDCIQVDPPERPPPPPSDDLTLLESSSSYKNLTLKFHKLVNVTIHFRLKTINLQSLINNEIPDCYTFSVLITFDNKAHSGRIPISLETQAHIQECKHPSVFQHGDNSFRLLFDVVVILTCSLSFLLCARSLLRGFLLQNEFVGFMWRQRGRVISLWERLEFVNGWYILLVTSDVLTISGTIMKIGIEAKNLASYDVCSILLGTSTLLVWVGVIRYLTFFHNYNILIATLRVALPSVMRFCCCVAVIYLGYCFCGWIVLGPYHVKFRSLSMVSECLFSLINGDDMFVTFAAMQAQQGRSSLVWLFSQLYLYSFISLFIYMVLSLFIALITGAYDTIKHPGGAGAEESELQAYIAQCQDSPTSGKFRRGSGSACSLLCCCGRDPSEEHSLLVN
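Kinetic FDSS Ca2+ read in Tet-induced TRPML1-DL cells (ABD Ca8 dye plus quencher, 45-90 min RT loading): baseline, then compound, then 110 s agonist window; EC80 agonist 54-4 at 4uM final added afterwards for a 110 s antagonist window.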
ClpP mod = qHTS Assay for Activators of ClpP. Potency, µM (top dose mostly 57.5 µM), for the others: at the top dose activity change, negative = active. AID 651965, 2013. ATP-dependent Clp protease proteolytic subunit (Bacillus subtilis (strain 168)), P80244. 1.9% of 340,000 active. purified B. subtilis ClpP, FRET peptide cleavage, 20 min; active = well fitted falling curve with a large enough effect; inconclusive = small, poorly fitted or top-dose-only effect; inactive = no such curve, though single readings can be large or run the other way; further: potency means the concentration at half of the fitted maximal effect; the source files actives as falling curves though it sought activators and does not explain the sign; nearly all actives have a fitted effect of over 65% in size; many hits overshoot -100%
Target sequence (P80244 whole entry, looked up): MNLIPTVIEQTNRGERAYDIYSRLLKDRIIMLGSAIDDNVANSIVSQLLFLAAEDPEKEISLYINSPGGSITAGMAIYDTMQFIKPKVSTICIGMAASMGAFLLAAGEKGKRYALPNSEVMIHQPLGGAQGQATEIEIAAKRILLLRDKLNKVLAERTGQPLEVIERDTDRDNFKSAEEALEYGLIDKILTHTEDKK
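FRET quenching reversal measured ClpP activation: 10 microg/mL B. subtilis ClpP at pH 8 with the FRET-FV decapeptide, read at 430 nm after 320 nm excitation. The 20-min minus 0-min signal was scaled between DMSO/no-enzyme wells and ADEP (5.8 microM final).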
TRPML1 blocker = human mucolipin-1 channel inhibition; activity change, negative = inhibition, % (concentration not given with the values); Q9GZU1; TRPML1-inducible cells, Ca2+ dye fluorescence, FDSS; hits give low values; inhibition of EC80 agonist-evoked calcium signal; 0.02% of 390,000 active; AID 624415; in the data active means activity change below about -50%; inconclusive means about -30% to -50%; inactive means above about -30%;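 further: stimulus is agonist 54-4 at its EC80 concentration; on the % scale 0 is the no-effect control and ±100 the full control effect; compound concentration not given in the record; the text of the record puts the active cut at -80%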
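TRPML1-DL cells, Tet-induced overnight (~16 h, 37 °C) at 1,500 cells/well, were loaded with Ca8 no-wash dye plus quencher for 45-90 min at room temperature. Compounds were pinned during FDSS kinetic reading; agonist 54-4 at EC80 (4 uM final) then added.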
* = called active by the depositor; ? = inconclusive; . = not tested or not shown; & = joins results of further samples; [ ] = remark or other dose.

entry	mol	TRPML1 blocker	Menin-MLL FL inh	ClpP mod	gsp agonist	TRPML1 agonist	gsp antagonist
1	COc1ccc(/C=C2/C(=O)OCc3cc(OC)c(OC)cc32)c(OC)c1	14	4.0	?	29%	0.0	16%
2	COc1ccc(CCN2C(=O)C(C)=C(C)C2=O)cc1OC	11	4.1	-1.3%	7%	-0.8	-5%
3	CC(=O)Oc1ccc2c(=O)oc(-c3ccccc3C)nc2c1	.	5.2	1.8%	-75%	.	-25%
4	CC(C)n1nc(C(=O)OCC(=O)c2c[nH]c3ccccc23)c2ccccc2c1=O	11	2.8	-0.9%	-14%	4.1	1%
5	COc1ccc(NC(=O)CN(C)S(=O)(=O)c2cnc[nH]2)cc1Cl	-10&12	.	-1.6%&0.5%	21%	-0.1&0.2	3%
6	CC(CC(=O)NCCc1ccc(Cl)cc1)S(=O)(=O)c1ccc2c(c1)NC(=O)CO2 (stereo not drawn)	-18	.	0.8%	1%	-0.3	3%
7	CSc1cccc(CN2CCN(Cc3ccccc3)C(CCO)C2)c1 (stereo not drawn)	-9	-6.2	-2.7%	19%	-1.2	3%
8	COc1cccc(CNC(=O)CSc2nnc3c(n2)[nH]c2ccc(F)cc23)c1	-1	3.1	.	-15%	-0.3	6%
9	CSCCC(C(=O)O)N1C(=O)c2ccc(C(=O)O)cc2C1=O (stereo not drawn)	5	-1.5	0.0%	?	-1.1	8%
10	COc1ccc(C2/C(=C(\O)c3cc(C)ccc3C)C(=O)C(=O)N2CCN(C)C)cc1OC (stereo not drawn)	-22	-3.6	4.0%	-10%	-0.4	18%
11	Cc1ccc(Nc2nnc(C3C(=O)N(C)C4(C)CC3c3cc(Br)ccc3O4)s2)cc1 (stereo not drawn)	-5	11	-7.7%	-8%	0.4	-6%
12	CCOC(=O)CC(NC(=O)Cc1ccccc1)c1ccccc1Cl (stereo not drawn)	45	4.9	-1.7%	-9%[15.4 µM]	-0.3	8%
13	COc1ccc(S(=O)(=O)NC(C)C(=O)NCC2CCCO2)cc1OC (stereo not drawn)	44	-1.5	.	-12%	0.0	11%
14	CN(C)CCNC(=O)c1ccccc1-c1ccccc1	26	-0.3	-2.0%	0%	1.1	9%
15	COc1ccc(NS(=O)(=O)c2cccc(C(=O)NNC(=O)c3cncc(Br)c3)c2)cc1	1	.	28µM*	2%[15.4 µM]	0.3	13%
16	Cc1c(C(Nc2ccccn2)c2ccc(Cl)cc2)c(=O)n(-c2ccccc2)n1C (stereo not drawn)	-10	-1.5	-6.7%	-29%	2.9	-7%
17	COCCn1c(C)cc(C(=O)COC(=O)/C=C/c2c(C)nn(C3CCS(=O)(=O)C3)c2Cl)c1C (stereo not drawn)	15	.	0.7%	-90%	0.9	-5%
18	COc1ccc(NC(=O)NCc2ccc(Cl)cc2)cc1	-6	.	1.7%	-16%	1.2	5%
19	CN(CC(=O)Nc1ccccc1C(F)(F)F)C(=O)c1ccc(N2C(=O)CCC2=O)cc1	34	.	.	19%[15.4 µM]	0.2	7%
20	CCOc1ccc(N(CC(=O)Nc2ccc(OC)cc2)S(=O)(=O)c2ccc(Cl)cc2)cc1	-14	.	-1.4%	.	3.1	.
21	O=C(NNc1ccccc1)C(=O)NNc1ccccc1	6	.	.	-25%	0.5	-1%
22	CCn1nc(C(=O)Nc2cccc(S(=O)(=O)N3CCCC3)c2)c2ccccc2c1=O	4	.	-0.9%	?	-0.3	-7%
23	O=C1C(=O)c2ccccc2C(O)=C1c1ccccc1F	87	-1.7	0.7%	11%[15.4 µM]	-0.4	?
24	O=C(COc1cccc2cccnc12)N/N=C/c1cccn1-c1ccc(F)cc1	-11	2.3	.	-1%[15.4 µM]	1.2	-23%
25	CCCC(C)NC(=O)C1CCN(C(=O)C2CC(=O)N(c3ccc(C)cc3)C2)CC1 (stereo not drawn)	4	.	.	24%	-0.3	-15%
26	CCOC(=O)C(=NC1CCS(=O)(=O)C1)NNc1ccc(Br)cc1 (stereo not drawn)	6	-0.4	.	9%	-0.1	-5%
27	CCOc1ccc(NC(=O)c2oc3ccccc3c2NC(=O)Cc2ccc(OC)c(OC)c2)cc1	38	.	131%	.	0.2	.
28	O=C(Nc1ccc(Cl)c(C(F)(F)F)c1)C1Cc2c(-c3ccccc3)ccnc2O1 (stereo not drawn)	44	.	-9.8%	.	0.1	.
29	CCC(C)C(=O)Nc1nc2ccc(S(C)(=O)=O)cc2s1 (stereo not drawn)	-7	0.3	.	-23%[15.4 µM]	-0.7	19%
30	O=C(CSc1nc2ccccc2c(=O)n1-c1ccc(F)cc1)Nc1ccc(C(=O)O)cc1	1	-9.5	0.3%	-8%[15.4 µM]	-1.3	-27%
31	O=C(CCC(=O)Nc1ccccc1)NNC(=O)COc1ccccc1	27	1.1	-2.2%	-26%	0.2	18%
32	O=C(Nc1ccc(F)cc1)c1ccc(C(=O)N2CCCC(O)C2)cc1 (stereo not drawn)	-5	.	-1.7%	-6%	-0.2	5%
33	CCCNC(=O)CN(Cc1ccccc1F)S(=O)(=O)c1ccc(C)cc1	-2	0.5	-0.2%	?	-0.8	-22%
34	CCN1CCN(C(=O)c2cn(CC)c3ccc(S(=O)(=O)N(C)C)cc3c2=O)CC1	-7	0.0	-1.5%	?	-0.3	4%
35	CCOc1ccc(N2C(=O)C3C(c4ccccc4F)NN(C(=O)c4ccc(C)cc4)C3C2=O)cc1 (stereo not drawn)	-8	0.5	0.1%	24%	1.5	7%
36	Cc1ccc(Nc2nc(N)nc(CSC(=S)N3CCOCC3)n2)cc1	14	2.6	1.6%	0%	-0.1	-4%
37	COC1=C(Br)C(=O)c2ncccc2C1=O	-11	.	-0.9%	10%	-0.4	-27%
38	COc1ccc([N+](=O)[O-])cc1C(=O)Nc1ccc(OCC(=O)N2CCOCC2)cc1	16	6.9	-1.3%	-9%	0.1	1%
39	S=c1[nH]nc(-c2cccs2)n1Cc1ccccc1	5	0.4	.	-11%[15.4 µM]	-0.2	3%
40	CN1CCN(C(=O)NC2CCCN2S(=O)(=O)c2ccc(Cl)cc2)CC1 (stereo not drawn)	10	3.7	-1.1%	-1%	-0.5	5%
41	CNS(=O)(=O)c1cc(OC)c(OC)cc1CC(=O)OC	-9	0.8	.	14%	1.0	6%
42	CC(CNC(=O)c1cc(COc2ccc3ncccc3c2)on1)c1ccccc1 (stereo not drawn)	20	0.5	-4.6%	-2%	2.8	32µM*
43	O=C(COc1ncnc2ccccc12)Nc1cc([N+](=O)[O-])ccc1Cl	15	-4.9	.	0%[15.4 µM]	-0.3	.
44	CCO[C@H]1OC(C(=O)NC2CC2)=C[C@@H](c2ccccc2)[C@@H]1CCCO	1	1.6	1.6%	.	0.8	-1%
45	COC(=O)c1ccc(-c2nc(O)c(C)s2)cc1	1	?	.	?	0.1	1%
46	O=C(CCCNc1ccccc1)N/N=C/c1cccs1	-3	3.5	.	-2%[15.4 µM]	-0.6	-1%
47	COc1cc(/C=N/NC(=O)COc2ccccc2[N+](=O)[O-])ccc1OC(=O)c1ccco1	17	3.9	0.2%	-10%[15.4 µM]	0.1	-56%
48	Cc1ccc(-n2c(=O)[nH]cc(C(=O)Nc3ccc4c(c3)OCCO4)c2=O)cc1	-3	-0.4	-0.4%	-3%	-0.2	-13%
49	O=C1SC(SCc2ccccc2)=N/C1=C\c1ccc(C(=O)O)cc1	-10	0.5	.	0%[15.4 µM]	0.4	.
50	O=C(Nc1cccc(F)c1)c1cccnc1NCCc1ccccc1	-17	1.3	?	29%	1.3	-7%
51	CC(C)OCCCNC(=O)c1ccc(CN2CCc3ccccc3C2)cc1	-8	0.6	-1.0%	-15%	-0.4	5%
52	COc1cc(-c2ccc(NC(C)=O)c(OC)c2)ccc1NC(C)=O	20	-0.8	-2.6%	?	-1.1	-5%
53	Cc1ccccc1/C=C/c1nc2ccccc2c(=O)[nH]1	1	3.9	.	32%	-0.5	-11%
54	Cc1cccc(-c2n[nH]c(=S)n2C)c1	32	1.4	-1.3%	1%[15.4 µM]	-1.1	1%
55	O=C(COC(=O)c1ccc(Br)o1)Nc1ccc(Br)cc1	-4	.	-2.6%	25%	0.5	2%
56	Cc1ccccc1-c1cc(C(=O)O)n(CC2CC(c3cccnc3)=NO2)n1 (stereo not drawn)	4	.	0.7%	.	-0.6	10%
57	COCCn1nnnc1C(c1cc2ccc(OC)cc2[nH]c1=O)N1CCN(C2CCCCC2)CC1 (stereo not drawn)	-1	2.9	?	-26%	0.2	10%
58	COCCOC(=O)c1nccnc1C(=O)Nc1ccc(S(=O)(=O)N2CCOCC2)cc1	11	1.6	0.3%	24%	5.6	4%
59	C=C1CCC2C(C)(CO)C(O)CCC2(C)C1C/C=C1\C(=O)OCC1O (stereo not drawn)	.	?	1.2%	.	-0.2	.
60	COCCNC(=O)C1CCN(Cc2cccc(OCc3ccccc3)c2)CC1	-20	-3.6	-2.6%	-3%[15.4 µM]	-0.4	13%

(further entries)
entry	mol	TRPML1 blocker	Menin-MLL FL inh	ClpP mod	gsp agonist	TRPML1 agonist	gsp antagonist
61	O=C(NC1CCOc2ccccc21)c1ccccn1 (stereo not drawn)	7	8.9	.	?	0.0	6%
62	COc1ccc(NC(=O)c2cc(S(=O)(=O)N3CCCCCC3)cn2C)c(OC)c1	-3	.	2.2%	.	-0.2	.
63	CC(C)c1ccc(NC(=S)N2CCCC2)cc1	-11	0.3	0.0%	-14%	0.9	-3%
64	COc1ccc(C(=O)Nc2cc(C)nn2-c2ccc(C)cc2)cc1	-9	1.4	.	6%[15.4 µM]	-0.6	-2%
65	Cc1ccc(CNC(=O)c2ccc([N+](=O)[O-])o2)cc1	17	0.5	-3.2%	-1%	-0.7	12%
66	COc1c(C)cccc1C(=O)Nc1ccc(OCC(=O)N2CCOCC2)cc1C	6	.	-2.5%	-2%[15.4 µM]	-0.7	7%
67	COC(=O)c1c(NC(NC(=O)c2ccccc2)(C(F)(F)F)C(F)(F)F)sc2c1CCN(C)C2	29	-2.5	?	-58%[inhibitor]	0.6	-19%
68	OCC1(Cc2ccccc2)CCN(Cc2cc3ccccc3o2)CC1	-6	-1.0	.	-8%	0.1	9%

Pulled by structure from the entries so far (3):
entry	mol	TRPML1 blocker	Menin-MLL FL inh	ClpP mod	gsp agonist	TRPML1 agonist	gsp antagonist
67	COC(=O)c1c(NC(NC(=O)c2ccccc2)(C(F)(F)F)C(F)(F)F)sc2c1CCN(C)C2	29	-2.5	?	-58%[inhibitor]	0.6	-19%
66	COc1c(C)cccc1C(=O)Nc1ccc(OCC(=O)N2CCOCC2)cc1C	6	.	-2.5%	-2%[15.4 µM]	-0.7	7%
62	COc1ccc(NC(=O)c2cc(S(=O)(=O)N3CCCCCC3)cn2C)c(OC)c1	-3	.	2.2%	.	-0.2	.

Assay outcomes deposited in PubChem by National Center for Advancing Translational Sciences (NCATS).
